# E coli growth: E. coli growth inhibition, primary screen, OD600 | Escherichia coli growth, 23 h; hits give low values | OD600 absorbance (concentration not given with the values) | hit rate 0.21% among 330,000;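 active = OD600 absorbance below the run mean of sample wells minus 3.6 SD, in any replicate, cut at about 0.56 in these data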;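 note: stock transfer was 300 nL into about 60 µL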
# UCH37 DUB inh: inhibitors of human UCH37 deubiquitinase, primary screen, biochemical, Ub-AMC cleavage, fluorescence | hit rate 0.33% among 330,000 | purified proteasome/UCH37 | inhibition, % (no concentration beside the values) | Ubiquitin carboxyl-terminal hydrolase isozyme L5 (Homo sapiens), Q9Y5K5;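 active = mean of two replicates above 20%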;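 note: 0% = compound-free wells with enzyme and 100% = wells lacking proteasome; stock transfer was 100 nL into about 20 µL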
# Target sequence (Q9Y5K5 whole entry, looked up): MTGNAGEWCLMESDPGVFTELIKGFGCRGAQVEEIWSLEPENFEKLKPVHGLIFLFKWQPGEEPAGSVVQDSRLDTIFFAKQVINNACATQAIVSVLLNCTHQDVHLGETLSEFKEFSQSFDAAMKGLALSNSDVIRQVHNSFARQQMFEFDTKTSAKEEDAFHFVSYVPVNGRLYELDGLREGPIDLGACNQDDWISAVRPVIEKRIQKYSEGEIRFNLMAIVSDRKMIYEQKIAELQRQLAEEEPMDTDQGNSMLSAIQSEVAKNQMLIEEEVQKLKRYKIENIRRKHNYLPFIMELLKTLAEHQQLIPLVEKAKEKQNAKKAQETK
#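 Material: human UCH37 enzyme supplied as purified proteasome complex. Measure: % inhibition of Ub-AMC cleavage fluorescence. Medium: pH 7.4 Tris-HCl (50 mM) with ovalbumin, ATP-MgCl2, DTT. Times: 30 min preincubation with enzyme, 25 min cleavage at room temperature. Detection: AMC fluorescence intensity at 355/460 nm.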
# Starred values were filed as active, the others as inactive.
SMILES,E coli growth,UCH37 DUB inh
Cc1nn(-c2ccccc2)c(N2CCCC2)c1C=Nn1cnc2scc(-c3ccccc3)c2c1=O,0.77,-62
Cc1ccc(NN=C2COC(C)(C)CC2=O)cc1,0.72,13
C=CCN(CC(=NO)c1sc(C(=O)OCC)nc1C)c1cccc(Br)c1,0.69,5.4
O=C(NN=Cc1cccc(C(F)(F)F)c1)c1ccc(O)cc1,0.62,2.2
CC(=NNC(=S)Nc1c(C)cccc1C)c1cc2ccccc2o1,0.74,-1.1
COc1ccc(C=NN(c2ccccc2)c2ccccc2)cc1O,0.71,3.9
Cc1cc(C(=O)NN=Cc2ccncc2)c(C)o1,0.65,3.0
O=C(NN=Cc1cc2ccccc2nc1Cl)[C@H]1C[C@@H]1c1ccccc1,0.69,-4.0
COc1cccc(C=Nn2c(C)nc3ccccc3c2=O)c1O,0.68,0.1
NC(=NN=Cc1ccc(O)cc1)c1nonc1N,0.64,9.6
COc1cccc(C=NNc2ccc(C(=O)O)cc2)c1O,0.68,17
O=S(=O)(CCc1ccccc1)N=Cc1cccs1,0.68,0.8
COc1ccc(-c2[nH]ncc2C=NNS(=O)(=O)c2ccc(Cl)cc2)cc1,0.73,3.6
CCCCn1c(N=Cc2cc(OC)ccc2O)nc2ccccc21,0.65,1.3
Cn1ncc(Cl)c1C(=O)NN=Cc1ccccn1,0.71,-0.6
Cc1ccc(C=NNC(=O)c2ccncc2)s1,0.72,13
C/C(C=NNC(=O)c1ccco1)=C\c1ccccc1,0.57,6.5
Cc1c(C(=O)NN=Cc2cccnc2)sc(N)c1C#N,0.7,-4.2
COc1ccc(-c2nn(-c3ccccc3)cc2C=NNC(=O)c2cccc(S(=O)(=O)Nc3ccccc3OC)c2)cc1,0.74,-6.2
COC(=O)NN=Cc1cc(C)n(-c2ccc(Br)cc2)c1C,0.69,4.5
CCN(CC)c1ccc(C=NNC(=O)c2cccc(S(=O)(=O)N3CCOCC3)c2)cc1,0.66,-32
CCn1c(C)nc2cc(C(=O)NN=C(C)c3ccc(OC)cc3O)ccc21,0.71,1.1
Cn1c(=O)cc(C(=O)NN=Cc2ccc(F)cc2)[nH]c1=O,0.65,8.8
Cc1nn(C)cc1C=NNC(=O)c1ccc(Cn2cc(Cl)cn2)cc1,0.69,5.8
Cc1cccc(N(CC(=O)NN=Cc2cc([N+](=O)[O-])ccc2Cl)S(C)(=O)=O)c1C,0.76,2.3
CCOc1ccc(C2C(C(=O)c3cccs3)=C(O)C(=O)N2CCCn2ccnc2)cc1 (stereo not given),0.73,-1.0
COc1ccc(N(CC(=O)NN=Cc2ccc(N(C)C)cc2)S(=O)(=O)c2ccccc2)cc1,0.68,-103
CNC(=O)N(O)C1N(N=Cc2c(F)cccc2Cl)C(=S)SC1(C)C (stereo not given),0.65,5.5
Cc1cc(O)c(C=NNc2ccccc2Cl)c(=O)o1,0.6,3.9
CCCOc1ccc(C=NNC(=S)Nc2ccccc2[N+](=O)[O-])c(O)c1,0.7,9.9
CCCCCCCCCC(=NO)c1ccccn1,0.68,2.3
O=C(CN1CCN(c2ccccc2)CC1)NN=Cc1cccc(F)c1,0.68,0.2
COc1cccc(C=NNc2nn3cnnc3c3ccccc23)c1O,0.74,1.8
O=C(Cc1ccc([N+](=O)[O-])cc1)NN=Cc1cccnc1,0.65,4.9
O=C(CSc1nnc(SCc2ccccc2)s1)NN=C/C=C/c1ccccc1[N+](=O)[O-],0.73,3.4
CCN(CC)c1ccc(C=NNC(=S)NC)c(O)c1,0.71,-21
O=C(CSc1nnc(SCc2ccc(Cl)cc2)s1)NN=Cc1ccccc1C(=O)O,0.69,3.2
N#CCCn1cc(C=NO)c(-c2ccc(F)cc2)n1,0.73,0.7
O=C(NN=Cc1ccc(Br)s1)Nc1ccccc1,0.65,1.8
Cc1ccccc1-c1n[nH]c(=S)n1N=C/C=C/c1ccco1,0.66,10
Nc1c(C(=O)NN=Cc2cccnc2)oc2nc(-c3ccccc3)cc(-c3ccco3)c12,0.66,-17
CCNC(=O)CC(C)=NNC(=O)C(=O)Nc1ccc(CC)cc1,0.65,5.3
C=CCNC(=S)NN=Cc1ccc(C(C)(C)C)cc1,0.64,5.3
NCCCNC(=O)c1ccc(C=NO)nc1,0.67,3.1
COC(=O)c1ccc(-c2ccc(C=NNC(=O)Cc3nnc(N)s3)o2)cc1,0.71,-69
COc1ccc(C=NOCC(=O)N2CC3(C)CC2CC(C)(C)C3)cc1OC (stereo not given),0.67,1.4
Cc1ccnc(-n2c(C)cc(C=NNC(=O)COc3cccc4cccnc34)c2C)c1,0.66,7.8
COc1ccc(CC(=O)NCC(=O)NN=Cc2sccc2C)cc1,0.68,1.7
COc1ccccc1C(=O)NN=C(C)c1ccc(NC(=O)C2CC2)cc1,0.69,-22
O=C(CSc1nc2sc3c(c2c(=O)n1-c1ccccc1)CCCC3)NN=Cc1ccc(C(=O)O)cc1,0.73,-8.3
Cc1cc(C)c2c(c1)C(=NNS(=O)(=O)c1ccc(Br)cc1)CCC2,0.7,1.2
COC(=O)C(=NNc1ccc(C)cc1)N1CCCc2ccccc21,0.69,1.9
Oc1ccc(C=NNc2ccccc2)cc1,0.7,-0.8
CCOc1ccccc1C=NNC(=O)c1cccc(S(=O)(=O)N(CC)CC)c1,0.71,2.2
COc1ccc2c(c1)-c1nc(N=Cc3ccccc3O)sc1CC2,0.65,2.2
CC(CCc1ccccc1)=NNC(=O)COc1ccccc1C,0.69,-1.1
Cc1ccc2nc(Cl)c(C=Nn3c(C)nnc3C)cc2c1,0.69,-8.2
Cc1nc(C(N)=NOC(=O)c2c(-c3ccccc3Cl)noc2C)cs1,0.71,3.9
O=C1C2C3C=CC(C3)C2C(=O)N1N=Cc1cn(Cc2ccccc2)c2ccccc12 (stereo not given),0.8,5.8
Nc1nnn(CC(=O)NN=C/C=C/c2ccccc2)n1,0.72,3.8

# (further entries)
SMILES,E coli growth,UCH37 DUB inh
CCN(CC)c1ccc(C=NNC(=S)NCc2ccccc2)c(O)c1,0.68,-10
CNN=Cc1ccc(C#N)cc1,0.69,5.1
COC(=O)c1ccc(C=NNC(=O)CC(=O)NC2CCCCC2)cc1,0.68,2.7
CC(CC(=O)Nc1ccc2c(c1)OCCO2)=NNC(=O)COc1ccc(C)cc1Br,0.64,3.3
S=c1[nH]nc(-c2ccncc2)n1N=C/C=C/c1ccccc1,0.63,8.0
O=C(NN=C/C=C\c1ccccc1[N+](=O)[O-])c1cc(-c2ccc3ccccc3c2)n[nH]1,0.72,5.3
CCCON=C1C(=O)N(c2ccccc2)c2ccccc21,0.65,4.0
O=C(NN=Cc1cc(Cl)ccc1O)c1ccc(Br)cc1,0.66,-4.8
O=C(/C=C/c1ccccc1)NCC(=O)NN=Cc1cccs1,0.69,2.7
O=C(COc1ccccc1[N+](=O)[O-])NN=Cc1ccc[nH]1,0.61,4.1
CCCc1noc2c1C(=NO)CC(c1ccccc1)C2 (stereo not given),0.75,-5.5
COc1cccc(C=NNC(=O)c2ccncc2)c1OC(=O)c1ccc(Br)cc1,0.64,2.5
ON=C(c1ccc2c(c1)OCCO2)C1CCCCC1,0.75,2.0
Cc1ccc(C=Nn2nnnc2N)o1,0.63,9.0
CC(=O)ON=C(N)Cc1ccc(-c2csnn2)cc1,0.64,4.0
COc1cc(C=NNC(=O)c2cc(-c3cccs3)nc3ccccc23)ccc1O,0.66,-9.7
Cc1ccc(-n2[nH]c(C)c(C=Nc3ccccn3)c2=O)cc1,0.68,6.9
CCOc1ccc(S(=O)(=O)NN=Cc2ccc3c(c2)OCO3)cc1,0.66,4.1
O=C(CSc1nc2ccccc2o1)NN=Cc1ccco1,0.71,5.8
CCc1ccc(NC(=O)CC(C)=NNC(=O)OCc2ccc(OC)cc2)cc1,0.66,1.8
O=C(NN=Cc1cccc(Oc2ccccc2)c1)c1ccncc1,0.68,6.0
O=C(O)c1ccccc1C=NNC(=O)C1CCCC1,0.68,0.3
CCn1c(C)nc2cc(C(=O)NN=Cc3ccc(OC)c(O)c3)ccc21,0.7,3.3
CC(=NOC(=O)c1cccc(Cl)c1)c1sc(C)nc1C,0.69,4.6
O=C1C2C3C=CC(CC3)C2C(=O)N1N=Cc1ccccc1O (stereo not given),0.7,-4.0
COc1cc(C=NNC(=O)COc2cccc(F)c2)ccc1OS(=O)(=O)c1ccc(C)cc1,0.71,6.6
CC(=NNC(=O)CCc1c(C)n[nH]c1C)c1cccc([N+](=O)[O-])c1,0.68,7.3
Clc1nccnc1NN=Cc1ccc(Br)cc1,0.67,6.9
Cc1nnc(NN=CC(C)c2ccccc2)[nH]c1=O (stereo not given),0.7,5.6
N#Cc1c(Nc2ccccc2)c(C=NNCCO)c[nH]c1=O,0.66,4.7

# Given with two lines to a compound: entries from further up.
# Each structure is followed by: E coli growth | UCH37 DUB inh
Clc1nccnc1NN=Cc1ccc(Br)cc1
  0.67 | 6.9
Cc1nnc(NN=CC(C)c2ccccc2)[nH]c1=O (stereo not given)
  0.7 | 5.6
N#Cc1c(Nc2ccccc2)c(C=NNCCO)c[nH]c1=O
  0.66 | 4.7

# (list continues)
SMILES,E coli growth,UCH37 DUB inh
N#CC(=C(O)c1ccco1)c1nc2ccccc2s1,0.64,18
Cn1cccc1C=NNC(=O)c1sc2cc(Cl)ccc2c1Cl,0.67,4.1
Cc1ccc2c(c1)C(=NO)CCS2,0.71,0.0
C(=Nn1cnnc1)c1ccccc1OCCOc1ccccc1,0.72,0.6
Cc1ccccc1NC(=O)CCC(=O)NN=Cc1cccnc1,0.71,1.0
O=C1C2C3C=CC(CC3)C2C(=O)N1N=Cc1ccco1 (stereo not given),0.69,0.8
NC(=S)NN=Cc1ccccc1O,0.68,-49
Nc1nnn(CC(=O)NN=Cc2cccc(Cl)c2)n1,0.7,0.8
O=[N+]([O-])c1cccc(NN=Cc2cccc3ccccc23)c1,0.69,9.7
C(=NN1CCOCC1)c1ccsc1,0.68,0.1
COc1ccc([N+](=O)[O-])cc1C=NNC(=O)CNC(=O)C(c1ccccc1)c1ccccc1,0.7,2.7
CCOC(=O)c1ccc(-c2ccc(C=NNC(=O)Cc3nnc(N)s3)o2)cc1,0.64,-55
CC(=NNC(=O)CNc1ccccc1)c1ccccc1,0.66,1.7
CCn1c(SCC(=O)NN=C/C=C\c2ccccc2[N+](=O)[O-])nnc1-c1ccccc1,0.66,6.4
CC(=NNC(=O)c1ccccc1)C(=O)O,0.7,-0.4

# In a second layout: two of the compounds above.
molecule: C(=NN1CCOCC1)c1ccsc1
  E coli growth: 0.68; UCH37 DUB inh: 0.1
molecule: COc1ccc([N+](=O)[O-])cc1C=NNC(=O)CNC(=O)C(c1ccccc1)c1ccccc1
  E coli growth: 0.7; UCH37 DUB inh: 2.7

# (list continues)
SMILES,E coli growth,UCH37 DUB inh
Cc1cc(C)cc(-n2c(C)cc(C=NNC(=O)c3cccc([N+](=O)[O-])c3C)c2C)c1,0.68,2.4
CNC(=O)N(O)C1N(N=Cc2ccccc2O)C(=S)SC1(C)C (stereo not given),0.66,11
COC(=O)NN=Cc1ccc(OC/C=C/c2ccccc2)cc1,0.71,1.4
O=C(Cc1n[nH]c(=O)[nH]c1=O)NN=Cc1c(O)ccc2ccccc12,0.68,1.9
Cc1cc2ncn(N=Cc3ccc(-c4ccccc4)o3)c2cc1C,0.7,-4.6
CC(=NNC(=O)c1ccc2c(c1)OCO2)c1ccco1,0.69,5.6
CC1(C)CC(=O)C(C=Nc2ccccn2)=C(O)C1,0.71,9.9
COc1ccc(C=NNC(=O)C2c3ccccc3-c3ccccc32)cc1,0.76,0.1
O=C(NN=Cc1cccc2cccnc12)c1ccccc1O,0.66,3.0
Cn1cccc1C=NNC(=O)c1cccnc1,0.66,13
CC(=NNC(=O)Cc1ccc(Cl)cc1)c1ccccc1O,0.65,3.7
CCOC(=O)NN=C(CCC(=O)O)c1cccs1,0.66,4.0
NC(=NO)c1ccc(Oc2ccccc2Cl)c([N+](=O)[O-])c1,0.55,3.6
CNC(=S)NN=Cc1c(Cl)cccc1Cl,0.72,3.9
NC(=NOC(=O)c1cccc([N+](=O)[O-])c1)c1ccccn1,0.62,1.8
Cc1ccc(-c2ccc(C=Nn3cnnc3)o2)c(Br)c1,0.67,-11
CCOc1ccccc1C=NNC(=O)c1cccc(Cl)c1,0.66,6.4
COc1ccccc1C=NNC(=O)c1cccc(NC(=O)c2ccccc2C)c1,0.67,0.9
COc1ccc(C=NNC(=O)CCn2nc(C)cc2C)cc1,0.65,1.6
CC(=NNC(=O)C1CC1)c1ccc(OC(F)F)cc1OC(F)F,0.69,0.3
CC1=CC(=N/N=C2/NC(=O)C(CC(=O)Nc3ccccc3)S2)CC(C)(C)C1 (stereo not given),0.66,0.8
O=C(NN=Cc1ccco1)c1ccc(N2CCCC2=O)cc1,0.69,9.8
Cc1cc(SCC(=O)NN=Cc2ccc(O)c(O)c2)c(C)cc1Br,0.75,2.9
CC(=NNc1ccc([N+](=O)[O-])cc1)c1ccc(N)cc1,0.65,7.2
CCOc1cc(C=NNC(=O)C(=O)Nc2cc(Cl)ccc2C)ccc1O,0.69,-0.6

# One compound at a time, from the list above. Order of screens: E coli growth, UCH37 DUB inh
# `COc1ccc(C=NNC(=O)CCn2nc(C)cc2C)cc1` is entered as 0.65, 1.6
# `CCOc1ccccc1C=NNC(=O)c1cccc(Cl)c1` is entered as 0.66, 6.4
# `O=C(NN=Cc1ccco1)c1ccc(N2CCCC2=O)cc1` is entered as 0.69, 9.8
# `CCOc1cc(C=NNC(=O)C(=O)Nc2cc(Cl)ccc2C)ccc1O` is entered as 0.69, -0.6
# `Cc1ccc(-c2ccc(C=Nn3cnnc3)o2)c(Br)c1` is entered as 0.67, -11

# Some of the compounds tested (hit frequency here may not be typical).
